# Bead autofluor: counter-screen for toxin protease inhibitors: compound fluorescence | AID 624483 | compound autofluorescence counterscreen, microsphere flow cytometry; hits give high values | 360,000 compounds, 3.1% hits | fluorescence intensity (concentration not given with the values);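 active means at least 3 SD above the mean of all compounds, about 16000 in these data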;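 further: 100 nL of 1 mM stock went into each well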
# BJeLR viability: MLPCN primary cell-based screen for lethality selective to Ras in HRASV12 cells; BJeLR (HRASV12) viability, CellTiter-Glo ATP luminescence, 48 h; reference of the scale not given here; inhibition, % (test concentration not listed); 300,000 compounds, 0.17% hits; AID 1554, 2009;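 active means replicate mean above 50%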;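 further: 50 nL library stock added to about 25 µL; numbers are from one replicate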
# Sa ugtP lethal: growth inhibition of ugtP-null S. aureus, primary screen, RN4220 ugtP deletion, OD600 | 16 h; some inactives read as strong as hits | growth inhibition, % (no concentration beside the values) | 330,000 compounds, 0.54% hits | AID 1259309, 2017;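 active means z-score under -3 and OD600 up to 0.15 on both plates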;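 further: plate controls were untreated wells for no effect and antibiotic for full effect; wells of about 80 µL received 100 nL stock; the first replicate is given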
# Sa RN4220 lethal: growth inhibition of S. aureus RN4220, primary screen, OD600 | 16 h | inhibition, % (concentration not given with the values) | 330,000 compounds, 0.33% hits;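 active means z-score of -3 or lower and OD600 up to 0.18 on both plates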;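 further: plate controls were untreated cells for no effect and reference antibiotic for full effect; stock transfer was 100 nL into about 80 µL; one replicate is shown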
# PrP 5UTR inh: inhibition of PrP 5' UTR reporter expression; inhibition, % (test concentration not listed); 340,000 compounds, 0.35% hits; cell-based PrP 5' UTR mRNA reporter, plate reader; AID 488862, 2010;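 active means every replicate at 50% or more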;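 further: 0 = median of the neutral control wells; tested in H4 reporter cells; numbers are from one replicate; inactives centre near -14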
# Mtb hypoxia inh: PubChem AID 1159583 | 300,000 compounds, 0.1% hits | fluorescence inhibition, % (test concentration not listed) | M. tuberculosis hypoxia-regulated fluorescent reporter, fluorescence;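 active means 35 to 45% if threefold the growth effect, above 45% if 1.5-fold the growth effect; inactive means the rest, general growth blockers included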;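 further: wells of about 50 µL received 100 nL stock; 0% = vehicle wells and 100% = reference inhibitor wells; whole bacteria with a GFP reporter of the hypoxia response; strong numbers were not always called active; many hits fall short of the cut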
# Mtb hypoxia inh growth: further read-out of Mtb hypoxia inh, marked with its call; growth inhibition, %; measured here: M. tuberculosis growth (absorbance);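 0% = vehicle and 100% = reference antibiotic; read after six days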
# Starred values were filed as active, the others as inactive; nt = no result given; & = joins results of further samples.
item	mol	Bead autofluor	BJeLR viability	Sa ugtP lethal	Sa RN4220 lethal	PrP 5UTR inh	Mtb hypoxia inh	Mtb hypoxia inh growth
1	COC(=O)CCCC1=CC2=CC(=O)C(C)(OC(=O)c3cccs3)C(=O)C2=CN1c1ccc(OC)cc1 (stereo unspecified)	3911	11	-2	6.1	-29	1	-7
2	COc1ccc(NC(=O)CSc2ncc(-c3ccc(F)cc3)n2Cc2ccco2)cc1	4733	-2	11	-5.9	-12	7	8
3	COC(=O)c1ccc(S(=O)(=O)NCc2ccccn2)n1C	4479	0	0	2.1	-3	0	-2
4	Cc1cc(C(=O)OCC(=O)c2ccc(Cl)c([N+](=O)[O-])c2)c2cccc(C)c2n1	2486	-12	-1	7.9	-29	4	1
5	Cc1cc(Cl)ccc1OCC(=O)NNC(=O)c1cccs1	5734	-6	-5	0.2	-5	0	-3
6	CN(c1ccccc1)S(=O)(=O)c1ccc2ccccc2c1	3733	-8	-2	1.4	-22	-13	0
7	N=C1SCC(=O)N1Cc1ccccc1	4076	-6	6	3.0	-19	-6	0
8	COc1ccc(CCNC(=O)C(NS(=O)(=O)c2ccc3c(c2)CCN3C(C)=O)C(C)C)cc1OC (stereo unspecified)	nt	-4	0	2.0	nt	11	0
9	COC(=O)C[C@H](NC(=O)Cn1cnc2c(NCc3ccccc3)ncnc21)C(=O)OC	3481	nt	0	3.0	-11	-8	-4
10	O=C(NCCN1CCCCC1)c1cccc2c1C(=O)c1ccc(N3CCCC3)cc1S2(=O)=O	5801	nt	1	5.2	14	25	18
11	O=C(NCC1CCCO1)C1CC(=O)N(c2cccc(Cl)c2)C1 (stereo unspecified)	5139	6	2	2.7	-10	15	11
12	OC(COCc1ccc(Cl)cc1)CN1CCN(c2ccccn2)CC1 (stereo unspecified)	2395	18	3	0.1	0	6	-2
13	O=C(CCc1nc(-c2ccc(Cl)cc2)no1)NC1CCCCC1	4969	-1	-3	4.0	-19	16	17
14	COc1cc2nc(NCC3CCCO3)n3nc(-c4cccnc4)nc3c2cc1OC (stereo unspecified)	9577	3	7	2.5	-18	4	4
15	CC(C)C[C@@]12C(=O)N(c3cccc(Cl)c3)C(=O)N1[C@H](c1ccc(Cl)cc1)[C@@H]1C(=O)N(C3CCCCC3)C(=O)[C@@H]12	3947	-5	nt	nt	-18	nt	nt
16	CC(C)COP(=O)(OCC(C)C)C(Nc1ccccc1)c1ccc2c(c1)OCO2 (stereo unspecified)	2588	-2	-11	-7.5	-17	nt	nt
17	O=C1/C(=C/c2cccnc2)Oc2cc(OS(=O)(=O)c3ccccc3)ccc21	10783	-6	-17	0.4	-15	1	11
18	O=c1nc(/C=C/c2ccc(O)c(O)c2)oc2ccccc12	3340	-2	13	4.3	-52	-1	-5
19	Cc1cccc(OCC(=O)Nc2nc3ccc([N+](=O)[O-])cc3s2)c1C	9404	-4	-24	0.7	5	-1	6
20	CC(C(=O)Nc1ccccc1)N(C)CCOc1ccccc1 (stereo unspecified)	3728	-11	11	0.1	-16	7	5
21	CN(c1ccccc1)P(=O)(N1CC1)N1CC1	2767	nt	10	3.9	-3	26	9
22	O=C(Nc1cccnc1)c1cc(-c2ccco2)on1	9925	-10	2	2.8	-18	-3	-2
23	Cc1nc2nc(CSc3ccc(Cl)cc3)cc(=O)n2[nH]1	11830	-1	-2	-6.5	-28	15	12
24	O=C(N/N=C/c1ccc2cccnc2c1)c1ccco1	4367	5	nt	nt	-12	nt	nt
25	C=CCN(C(=O)Nc1ccccc1)C1CC(=O)N(c2ccc(OC)cc2)C1=O (stereo unspecified)	10983	7	2	1.9	-16	11	14
26	O=C(NC1CCN(C(=S)NCc2ccco2)CC1)C12CC3CC(CC(C3)C1)C2	9418	1	5	4.3	-51	5	-2
27	O=C(NCCCN1CCCC1=O)NC1CCCCC1	4023	-6	6	2.7	-15	15	8
28	O=C(O)C1=C(C(=O)O)C2C=CC1C2	3760	nt	0	4.5	-14	nt	nt
29	NC(=O)C1CCN(S(=O)(=O)c2cccc(S(=O)(=O)N3CCCCC3)c2)CC1	3915	-5	6	2.1	-1	nt	nt
30	CCOc1ccc2c(c1)-c1c(ssc1=S)C(C)(C)N2C(=O)c1ccco1	2170	-14	43	-6.5	-14	-7	3
31	CCOC(=O)c1ccc2[nH]c3ccccc3c2c1	5044	2	-7	-0.6	-39	nt	nt
32	COc1ccc(NC(=O)c2cc(CN3C(=O)c4ccccc4C3=O)ccc2OC)cn1	4822	10	5	-1.4	-15	18	14
33	CCCn1nnnc1NC(=O)COc1ccc(Cl)cc1C	5350	-8	-9	20	-17	14	8
34	CNC(=S)N(Cc1ccccc1)Cc1cccnc1	5740	1	12	2.5	-36	17	1
35	O=C(O)Cn1cc(/C=C/[N+](=O)[O-])c2ccccc21	6147	-1	1	1.4	-18	6	3
36	CCCc1nc(SCC(=O)Nc2cc(C)on2)c2c(=O)n(C)c(=O)n(C)c2n1	6543	10	1	4.2	45	-6	1
37	CC(C)=CC(=O)Nc1nc2ccc([N+](=O)[O-])cc2s1	2115	-4	3	0.6	-64	0	12
38	CC(=O)c1ccc2c3c(cccc13)C(=O)N(c1c(C)nn(C)c1C)C2=O	5437	nt	-1	-5.9	-33	nt	nt
39	Fc1ccccc1Cn1nnc2c(NCCc3ccccn3)ncnc21	4301	-8	9	-0.5	-7	8	14
40	CN1CCN(CCC(=O)NN=Cc2ccccc2F)CC1	nt	nt	-2	1.5	nt	0	-3
41	COc1cc(C(=O)NCC(c2cccnc2)N2CCN(c3ccc(F)cc3)CC2)cc(OC)c1OC (stereo unspecified)	2627	nt	3	0.2	-14	-9	3
42	Cc1ccc(-c2cc(C(=O)Nc3ccc(S(=O)(=O)Nc4nc(C)cc(C)n4)cc3)c3ccccc3n2)cc1	2497	-25	1	-3.4	15	0	5
43	C[C@H]1CCC[C@]2(O[C@@H](CCO)C[C@H](O)[C@H]2O)O1	3445	7	nt	nt	-6	nt	nt
44	COCCn1c(N)c(N(Cc2ccccc2)C(=O)Cc2c(Cl)cccc2Cl)c(=O)[nH]c1=O	4252	0	4	6.7	-16	9	1
45	Cc1ccc(NC(=O)c2cc(=O)c3ccccc3o2)cc1	21364*	1	-3	4.4	-40	-1	3
46	COc1ccc(N2CCN(C(=O)c3cc([N+](=O)[O-])ccc3N3CCN(CCO)CC3)CC2)cc1	5416	15	2	0.4	-10	1	13
47	CCc1cccc(CC)c1NC(=O)CNCc1cccs1	3935	-4	7	-1.6	-17	-11	-4
48	NC1=NCC(O)=C1c1nc2ccccc2[nH]1	3131	36	2	7.5	-8	12	11
49	O=C(CN(c1ccccn1)S(=O)(=O)c1ccccc1)N/N=C/c1cccc([N+](=O)[O-])c1	8745	-9	nt	nt	-23	nt	nt
50	O=[N+]([O-])c1ccc(S(=O)(=O)NN=CCCc2ccccc2)cc1	3268	nt	1	6.8	-11	7	4

# The list continues.
item	mol	Bead autofluor	BJeLR viability	Sa ugtP lethal	Sa RN4220 lethal	PrP 5UTR inh	Mtb hypoxia inh	Mtb hypoxia inh growth
51	O=C(NCCN1CCN(c2ccccc2)CC1)Nc1cccc(Cl)c1	3639	-10	1	-1.5	-5	22	11
52	CC(=O)Nc1ccc(S(=O)(=O)NCCSCc2cccc(Cl)c2)cc1	2168	2	5	1.8	-3	4	2
53	Cc1ccc(C(=O)NCc2ccc3c(c2)OCO3)cc1N1CCCC1=O	6810	9	-6	-10	-17	7	3
54	O=C(Nc1ccc(-c2cn3ccccc3n2)cc1)c1cccs1	4565	6	-7	1.4	-57	-10	-1
55	COc1cccc(-c2nc3ccc(O)cc3c(=O)o2)c1	23859*	3	-5	9.5	-1	11	9
56	CC1=NN(Cc2cc(C(C)(C)C)c(O)c(C(C)(C)C)c2)C(=O)C1	3554	6	5	7.4	-9	2	-2
57	Cc1ccc(NC(=O)c2ccccc2Cl)cc1-n1cnnn1	2574	9	-3	0.6	4	3	5
58	CCN(CC)CCN1C(=O)C(=O)C(=C(O)c2ccccc2)C1c1ccccc1F (stereo unspecified)	nt	nt	0	3.4	nt	13	10
59	O=C(Nc1ccc(F)cc1)Nc1ccc(N2CCOCC2)c2nonc12	4617	0	73	2.6	-48	2	2
60	COc1cc(CCCN2C(=O)C(=O)NC[C@@H]2CC2CCCCC2)cc(OC)c1OC	2873	7	nt	nt	-15	nt	nt
61	CCOC(=O)c1c(C)[nH]c(C(=O)COC(=O)c2ccc(O)cc2O)c1C	4612	-3	0	4.1	-28	-8	-5
62	CC(C)C(NC(=O)c1ccc(F)cc1)C(=O)N1CCC1 (stereo unspecified)	5650	nt	0	3.2	-12	7	13
63	CCn1ncc([N+](=O)[O-])c1C(=O)Nc1c(C)cccc1C	3730	1	4	3.3	-27	6	9
64	O=C(CNS(=O)(=O)c1ccccc1)NCC(=O)OCc1ccc(C(=O)c2ccccc2)cc1	2115	6	-8	13	-2	5	3
65	Cc1ccc(-c2nnc(NC3CCCCC3)c3ccccc23)cc1S(=O)(=O)N1CCN(C)CC1	9607	-9	-1	6.1	-5	9	0
66	COc1ccc(C(=S)N2CCOCC2)cc1OS(=O)(=O)c1ccccc1[N+](=O)[O-]	1971	-3	2	7.3	9	9	-1
67	Cn1ncc2c(NNC(=O)c3ccccc3Cl)ncnc21	2070	4	11	5.1	-21	4	8
68	Cc1cc(C)nc(NC2=NCC(=O)N2CCc2c[nH]c3ccccc23)n1	5095	4	-5	-3.4	-17	nt	nt
69	Cc1cc(NC(=O)CCC(=O)N(Cc2cccs2)C(C)(C)C(=O)NC2CCCCC2)no1	3708	2	14	2.1	-31	13	6
70	Cc1cc(/C(O)=C2\C(=O)C(=O)N(CCN(C)C)C2c2ccncc2)ccc1OCc1ccccc1 (stereo unspecified)	1992	6	7	1.2	-8	9	-2
71	Cc1cc(C(=O)OCC(=O)NC2CCCCC2)c(C)o1	nt	5	6	-0.7	-14	13	5
72	Cc1cccc(OCCCN2CCCCCC2)c1	7645	-8	2	1.7	9	5	-8
73	CCN(CC)C(=O)/C(=C\c1ccc2c(c1)OCO2)NC(=O)c1ccc(Br)cc1	2140	6	nt	nt	-21	nt	nt
74	COCc1cc(C)nc(N)c1C#N	3614	-7	0	1.2	-7	nt	nt
75	COc1ccc(N2CCN(C(=O)c3oc4ccccc4c3C)CC2)cc1	4565	-6	-3	24	-14	9	2
76	COCCCNC(=O)CN(c1cc(OC)ccc1OC)S(=O)(=O)c1ccccc1	4681	2	0	2.5	-11	8	9
77	CCOC(=O)C1C2COc3ccc(Br)cc3C2N2C(=O)N(c3ccc(Br)cc3)C(=O)[C@@]12C (stereo partly specified)	nt	nt	19	5.2	nt	5	1
78	CCOC(=O)C1C2C=CC3(CN(CCc4ccccc4)C(=O)C13)O2 (stereo unspecified)	3636	0	4	-3.0	-7	nt	nt
79	Cc1ccc2nc(-c3cccc(NC(=O)c4ccco4)c3)[nH]c2c1	3208	-4	-1	4.2	-58	nt	nt
80	COc1cc(C(=O)NCC(=O)N/N=C/c2ccc(OC(=O)c3ccco3)cc2)cc(OC)c1OC	4573	-5	nt	nt	-12	nt	nt
81	CC(C)(C)c1csc(NC(=O)c2c(F)c(F)c(F)c(F)c2F)n1	4810	22	12	0.9	10	26	15
82	CC(=O)OCC[N+](C)(C)C	5645&5544&5903	1&-1&-7	-1&-1	6.5&5.2	-2&-11&0	6&4	2&3
83	O=C1c2ccccc2C(=O)N1CCCSc1nc2ccccc2o1	2862	-9	2	-12	-10	6	7
84	CN(Cc1ccc(C(F)(F)F)cc1)C(=O)C1CC(=O)N(Cc2ccco2)C1 (stereo unspecified)	2908	nt	1	4.2	-15	-9	-4
85	COc1cc2[nH]c(C(=O)N3CCc4ccccc4C3)cc2c(OC)c1OC	4915	4	8	6.2	2	6	2
86	N=c1n(CCN2CCOCC2)c2ccccc2n1Cc1ccccc1Br	19620*	-1	-2	-2.6	-9	-5	2
87	Cc1nc(Nc2nc(CSc3ccc(Cl)cc3)cc(=O)[nH]2)nc2ccccc12	2644	-3	-6	11	-13	1	7
88	O=C(Nc1ncc([N+](=O)[O-])s1)c1cccc([N+](=O)[O-])c1	3832	26	nt	nt	16	nt	nt

# Compound activity: PubChem, several laboratories
